Bioassay records: PubChem BioAssay, several laboratories
Hsc70 ATP site = small molecules displacing fluorescent ligand from Hsc70 – biochemical, fluorescence polarization, primary screen (AID 568) | 83,000 tested, under 10 active | Hsc70 fluorescence polarization, probe displacement; higher % means a stronger effect; strong numbers were not always called active | one-dose displacement, % at 20 µM; IC50 in µM for titrated hits;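 active = displacement above 50% without optical interference and an IC50 on retest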;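 note: ATPase domain with a fluorescein-tagged ATP probe; 0% = vehicle and 100% = excess ADP; read after one hour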
WNV NS2B-NS3 inh = WNV NS2B-NS3 proteinase inhibition; P06935; WNV NS2B-NS3 protease, fluorogenic substrate Ex360/Em465; stronger effect = lower value; z-score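 (tested at a level between 10 and 100 µM)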; actives 0.18% (n = 65,000);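 active = z-score at -3 or under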;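 note: score is relative to mean and spread of the compound wells of a plate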
Target sequence (P06935 1371-1501 limits assumed): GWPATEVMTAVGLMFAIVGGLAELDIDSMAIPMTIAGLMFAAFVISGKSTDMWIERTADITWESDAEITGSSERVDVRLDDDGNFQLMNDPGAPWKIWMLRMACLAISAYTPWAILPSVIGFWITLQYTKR
Target sequence (P06935 1502-1679 limits assumed): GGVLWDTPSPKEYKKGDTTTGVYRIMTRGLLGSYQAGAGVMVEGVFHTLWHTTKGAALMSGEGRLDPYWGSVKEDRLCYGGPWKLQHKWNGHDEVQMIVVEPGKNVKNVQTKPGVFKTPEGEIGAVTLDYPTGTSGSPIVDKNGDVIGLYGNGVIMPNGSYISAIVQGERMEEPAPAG
MT1-MMP reporter = MT1-MMP gene expression reporter suppression – cell-based, luciferase reporter, luminescence (AID 618) | MT1-MMP promoter luciferase reporter cells, luminescence | calls from a first round at 10 µM; hits with a dose series show EC50 in µM | actives 0.62% (n = 87,000);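 active = over half of the reporter light lost at 10 µM or EC50 under 50 µM; inactive = the rest and hits that failed the dose series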;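 note: actives suppress MT1-MMP promoter-driven transcription so potencies describe inhibitors; HT1080 fibrosarcoma cells; overnight exposure; toxic or luciferase-blocking compounds were not removed from the actives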
Starred values were filed as active, the others as inactive; i = inactive; x = no result given.

SMILES	Hsc70 ATP site	WNV NS2B-NS3 inh	MT1-MMP reporter
CCc1ccc(NC2=NCC(=O)N2Cc2ccc3c(c2)OCO3)cc1	3.2%	-0.59	i
NC(=O)COC(=O)CCCc1c[nH]c2ccccc12	1.6%	-1.3	i
COc1ccc(NC(=O)Cn2nnc(-c3ccccc3N)n2)cc1OC	0.2%	0.32	i
Cc1cc(NC(=O)CSc2nnc(-c3ccc(S(=O)(=O)N4CCCC4)cc3)n2C)no1	4.3%	1.1	i
CCN1CCN(C(c2ccc(OC)cc2)C(O)C(=O)c2c[nH]c3ccccc23)CC1 (centres undefined)	-0.7%	x	i
CCOC(=O)Nc1sc2c(c1C#N)CCCC2	2.0%	x	i
Cc1cc(N2CCCCC2)nc(SCc2ccc(C#N)cc2)n1	-0.8%	-0.27	i
O=C(NCc1ccccc1)c1nc2c(nnn2Cc2cccc(Cl)c2)c(=O)[nH]1	-0.3%	x	i
O=C(CSc1nc2c(c(=O)n1-c1ccc(F)cc1)SCC2)NCC1CCCO1 (centres undefined)	1.5%	-0.12	i
CCn1c(Sc2nc(C)nc3scc(-c4cccs4)c23)n[nH]c1=O	3.6%	-0.35	i
O=C(NCC1CCCO1)c1c(O)c2cccc3c2n(c1=O)CC3 (centres undefined)	-2.2%	-1.5	i
CCOCCCNC(=O)C(NC(=O)c1ccccn1)c1ccc(C)cc1 (centres undefined)	-2.7%	1.2	i
COc1ccccc1N(CC(=O)NC1CCCCC1)S(C)(=O)=O	-1.3%	-0.04	i
CCOC(=O)N1CCC(NC(=O)c2cc3ccccn3n2)CC1	-0.5%	-0.48	i
CNC(=O)CN(Cc1ccccc1)S(=O)(=O)c1ccccc1	4.8%	2	i
Cc1ccc(NC2CC(=O)N(CCc3ccccc3)C2=O)cc1 (centres undefined)	0.7%	x	i
COc1cc(/C=N/n2cnnc2)ccc1OCc1ccccc1	-1.2%	x	i
CCOC(=O)c1sc(=NC(=O)c2ccc(S(=O)(=O)N3CC(C)OC(C)C3)cc2)n(C)c1C (centres undefined)	-4.7%	-0.95	i
Cc1ccc(C(=O)CC2(O)C(=O)N(Cc3ccccc3Cl)c3ccccc32)o1 (centres undefined)	2.2%	-0.24	i
Cc1ccc2cc(C#N)c(N3CCCN(C(=O)C4CCCO4)CC3)nc2c1C (centres undefined)	-14%	2.3	i
O=C(CSc1nc(-c2cccs2)cc(C(F)(F)F)n1)NCCCn1ccnc1	1.3%	-1.4	i
CCOC(=O)Cn1c(C)nc2ccccc21	1.2%	-0.84	i
Cc1c(C)n(CC(O)CN2C(=O)c3ccccc3S2(=O)=O)c2ccccc12 (centres undefined)	4.0%	x	i
Nn1c(SCc2cn3ccsc3n2)nnc1-c1ccncc1	0.9%	-0.61	i
c1coc(-c2nnc(SCc3nc4ccccc4[nH]3)o2)c1	-2.6%	1.6	i
CC12CS(=O)(=O)CC1SC(=S)N2c1ccccn1 (centres undefined)	-6.1%	0.58	i
O=C(Cn1ncc(Cl)c(Cl)c1=O)c1ccc(Cl)cc1	4.4%	x	i
Cc1ccccc1-n1c(SCc2c(C)noc2C)nnc1-c1ccncc1	-1.3%	0.81	i
Cc1cc(/C=N/n2cnnc2)c(C)n1-c1cc(Cl)ccc1Cl	-4.5%	-0.26	i
Cn1c(=S)[nH]c2cccnc21	1.8%	0.19	i
CCCCCCNC(=O)c1c(O)c2ccccc2[nH]c1=O	-6.7%	0.17	i
Cc1cc(C)n(C(=O)CN2C(=O)c3ccccc3C2=O)n1	1.5%	0.52	i
CCOC(=O)c1sc(C)c(C(=O)NC2CCCCC2)c1N	-6.9%	x	i
O=C(NCCn1ccc2ccccc21)C1CCCCC1	3.0%	0.05	i
O=c1cc(CSc2nc3cc(Cl)ccc3o2)nc2sccn12	-4.6%	-0.08	i
CCOC(=O)C(NC(=O)CC)(Nc1ccc(S(=O)(=O)Nc2onc(C)c2C)cc1)C(F)(F)F (centres undefined)	-2.7%	-0.47	i

Arranged by molar mass (smallest number first): part of the list above.
SMILES	Hsc70 ATP site	WNV NS2B-NS3 inh	MT1-MMP reporter
Cn1c(=S)[nH]c2cccnc21	1.8%	0.19	i
CCOC(=O)Cn1c(C)nc2ccccc21	1.2%	-0.84	i
Cc1cc(C)n(C(=O)CN2C(=O)c3ccccc3C2=O)n1	1.5%	0.52	i
CCCCCCNC(=O)c1c(O)c2ccccc2[nH]c1=O	-6.7%	0.17	i
CC12CS(=O)(=O)CC1SC(=S)N2c1ccccn1 (centres undefined)	-6.1%	0.58	i
CCOC(=O)c1sc(C)c(C(=O)NC2CCCCC2)c1N	-6.9%	x	i
O=C(Cn1ncc(Cl)c(Cl)c1=O)c1ccc(Cl)cc1	4.4%	x	i
Cc1cc(/C=N/n2cnnc2)c(C)n1-c1cc(Cl)ccc1Cl	-4.5%	-0.26	i
O=c1cc(CSc2nc3cc(Cl)ccc3o2)nc2sccn12	-4.6%	-0.08	i
Cc1ccccc1-n1c(SCc2c(C)noc2C)nnc1-c1ccncc1	-1.3%	0.81	i
Cc1ccc2cc(C#N)c(N3CCCN(C(=O)C4CCCO4)CC3)nc2c1C (centres undefined)	-14%	2.3	i
Cc1c(C)n(CC(O)CN2C(=O)c3ccccc3S2(=O)=O)c2ccccc12 (centres undefined)	4.0%	x	i
O=C(CSc1nc(-c2cccs2)cc(C(F)(F)F)n1)NCCCn1ccnc1	1.3%	-1.4	i
CCOC(=O)C(NC(=O)CC)(Nc1ccc(S(=O)(=O)Nc2onc(C)c2C)cc1)C(F)(F)F (centres undefined)	-2.7%	-0.47	i

(list continues)
SMILES	Hsc70 ATP site	WNV NS2B-NS3 inh	MT1-MMP reporter
COc1cccc(-c2c(NC(=O)c3ccco3)n(-c3ccc(C)cc3)nc(C)c2=O)c1	9.7%	-0.1	i
Cc1ccc(NC(=O)CN(C)Cc2nc3ccccc3c(=O)[nH]2)c(Br)c1	-5.9%	x	i
O=C(O)CC1C(=O)NCCN1Cc1ccc(F)c(F)c1 (centres undefined)	2.3%	0.82	i
CN1CCc2c(sc3c2C(=O)NC(c2ccc4c(c2)OCO4)N3)C1 (centres undefined)	-1.4%	-0.57	i
C/C=C/c1ccc(OCCCNC)c(OC)c1	2.1%	x	i
CC(C)Cc1nnc(NC(=O)c2ccncc2)s1	-2.8%	0.36	i
NC(=O)CSc1nnc(-c2cnccn2)n1-c1ccccc1	-0.1%	0.34	i
Cc1ccc(C)n1-c1ccc(-n2cnnn2)cc1	-11%	0.19	i
Cc1nn(-c2cc(N3CCCC3)ccc2[N+](=O)[O-])c(=O)c2ccccc12	1.6%	x	i
Cc1cc(N2CCOCC2)nc2ccc(NC(=O)CCC(=O)N3CCCCC3)cc12	-4.0%	-0.18	i
CC(C)C(=O)Nc1nnc(SCC(=O)N2c3ccccc3CC2C)s1 (centres undefined)	-9.7%	x	i
COc1ccc(-c2cc(C(F)(F)F)n3nc(C(=O)NCc4ccco4)cc3n2)cc1	4.8%	0.02	i
C=CCNC(=O)CCCOc1cccc(C)c1	-0.1%	-0.87	i
CC1CN(C2CCN(C(=O)c3ccccc3Cl)CC2)CC(C)O1 (centres undefined)	3.7%	-0.38	i
CC(C)Sc1ncnc2c1oc1ccccc12	1.2%	-0.98	i
O=C(c1ccc2ccccc2c1)N1CCN(c2ccccc2)CC1	-3.4%	1.1	i
O=C(O)c1cc(S(=O)(=O)N2CCCC2)ccc1Br	-0.2%	0.08	i
CC(C)CN(C(=O)COC(=O)c1cc2ccccc2oc1=O)C1CCS(=O)(=O)C1 (centres undefined)	-3.7%	-1.1	i
COc1ccc(N2C(=O)c3cccc4cccc(c34)C2=O)nn1	12%	0.21	i
CN(Cc1ccccc1)C(=O)c1ccc2c(c1)OCCO2	0.2%	0.43	i
CC(C)CC(C(=O)O)N(Cc1ccccc1)Cc1ccccc1 (centres undefined)	-2.6%	x	i
C=C(C)CN=c1scc(C)n1/N=C/c1ccco1	5.2%	-0.59	i
O=C(CN(C(=O)CNS(=O)(=O)c1ccccc1)C1CCCC1)NCc1ccco1	-2.1%	-0.92	i
C=CCCCCCCCCC(=O)NNC1=CC(=O)CC(C)(C)C1	-4.0%	x	i
CCCC(c1nnnn1Cc1ccco1)N1CCN(C(=O)c2ccco2)CC1 (centres undefined)	-4.1%	-1.1	i
Cc1ccccc1NC(=O)CSc1nnnn1C	-2.6%	0.74	i
COc1cccc(OCc2nnc(SCC(=O)OC3CCCCC3)n2C)c1	-3.6%	-0.49	i
C=C(C)c1cccc(C(C)(C)NC(=O)NCCCN2CCCC2=O)c1	-0.1%	1.2	i
COc1ccccc1-c1noc(-c2ccccc2C(=O)Nc2ccccc2)n1	-7.6%	0.79	i
COC(=O)c1ccc(S(=O)(=O)NCCSc2nnc3c4ccccc4n(C)c3n2)cc1	-6.6%	-0.74	i
c1ccc(C(Cc2nc(-c3ccccn3)no2)c2ccccc2)cc1	1.2%	-1.2	i
O=C(CCN1C(=O)C2CC=C(Cl)CC2C1=O)NCc1ccco1 (centres undefined)	-4.1%	-0.12	i
Cc1nc(Sc2nnnn2-c2ccccc2)c(C#N)c(C)c1C	-1.8%	-0.93	i
Cc1ccc(C)c(S(=O)(=O)Nc2ccccc2C(=O)Nc2cc(C)on2)c1	-14%	0.0089	i
Cn1c(SCC(N)=O)nnc1-c1ccccc1	1.3%	1.2	i
O=C(O)c1ccc(Cl)c2c1C1C=CCC1C(c1ccccn1)N2 (centres undefined)	16%	0.08	i
Cc1ccc(-c2nc(CSCC(=O)N3CCN(C(=O)c4ccco4)CC3)c(C)o2)cc1	4.0%	1.8	i
CCCOc1ccc(CC(CC(=O)O)(C(=O)O)C(=O)O)cc1	2.2%	-2.2	i
CCn1c(C(O)c2ccccc2)nc2ccccc21 (centres undefined)	-2.7%	-1.2	i
CCc1cccc(NS(=O)(=O)c2c(C)n[nH]c2C)c1	-2.4%	-0.01	i
CCCC(=O)Nc1ccc(Br)cn1	-1.6%	x	i
Cc1c(C(=O)N2CCCc3ccccc32)oc2ccc(S(=O)(=O)N3CCOCC3)cc12	-7.0%	1.2	i
Cc1ccc(-c2cc(C(=O)NCc3cccs3)no2)cc1	6.6%	-2	i
O=C(COC(=O)CCC(=O)c1ccc(Cl)cc1)NCC1CCCO1 (centres undefined)	-1.7%	0.18	i
O=C(NC1CCCCC1)C1CC(=O)N(c2ccc(Cl)cc2)C1 (centres undefined)	1.2%	2.2	i
COCCCNC(=O)C1CC(=O)N(c2ccc(C)cc2)C1 (centres undefined)	-0.7%	-0.38	i
COc1ccccc1C(=O)NC1CCCCCCC1	-1.7%	x	i
COCCNC(=O)C(c1ccco1)N(C(=O)Cn1nnc2ccccc21)c1cc(C)ccc1C (centres undefined)	1.2%	-0.05	i

Just Hsc70 ATP site, for some of the entries so far:
molecule	Hsc70 ATP site
COCCNC(=O)C(c1ccco1)N(C(=O)Cn1nnc2ccccc21)c1cc(C)ccc1C (centres undefined)	1.2%
Cc1ccc(-c2nc(CSCC(=O)N3CCN(C(=O)c4ccco4)CC3)c(C)o2)cc1	4.0%

Additional structures follow.
SMILES	Hsc70 ATP site	WNV NS2B-NS3 inh	MT1-MMP reporter
CC(Sc1nc(-c2ccccc2)cc(C(F)(F)F)n1)C(=O)N1CCOCC1 (centres undefined)	-0.5%	x	i
CCOc1ccc(C2C(C#N)=C(N)SC(N)=C2C#N)c(OCC)c1	-121%	-0.16	i
Cc1ccc(S(=O)(=O)N2CCN(C(=O)CSc3nc4ccccc4c(=O)[nH]3)CC2)c(C)c1	4.2%	0.18	i
CCC(=O)Nc1cc(-c2nnc(OC)c3ccccc23)ccc1N1CCOCC1	-7.9%	-0.3	i
CC(C)(C)NC(=O)CSc1nnc(Cc2ccc3c(c2)OCO3)n1C1CCCCC1	-3.7%	1.3	i
O=C(O)CSC1=NCCN1	1.0%	-0.35	i
CC1(C)Cc2ccccc2C(c2cc3ccccc3oc2=O)=N1	4.4%	x	i
CCNc1nc(NC(C)C)nc(OCC)n1	5.1%	x	i
CN1C(=O)c2ccccc2C(C(=O)O)C1c1cn(C)c2ccccc12 (centres undefined)	1.9%	-0.58	i
OCCCn1c(-c2ccccc2)n[nH]c1=S	1.7%	x	i
CCOC(=O)COn1c(-c2cccc(Cl)c2)nc2ccc([N+](=O)[O-])cc21	2.5%	x	i
COCCOC(=O)C1=C(C)N(Cc2ccccc2)C(=O)NC1c1cccc(OC)c1OC (centres undefined)	-5.9%	0.55	i
COC(=O)c1cc(OC)c(OC)cc1NC(=O)c1c(-c2ccccc2)noc1C	2.8%	0.08	i
COc1cccc(O[C@@H]2O[C@@H]3COC(C)(C)O[C@H]3[C@H](O)[C@H]2NC(C)=O)c1	4.6%	x	i
COc1cccc(-c2nnc(NC(C)=O)o2)c1	4.4%	0.08	i
Cc1cc(NC(=O)Nc2cccc(C(F)(F)F)c2)no1	7.9%	0.8	i
COC(=O)C1=C(C)NC(C)=C(C(=O)OC)C1C(=O)OCCN1C(=O)c2ccccc2C1=O	-5.9%	-0.04	i
CC1=C(C(=O)OC2CCCC2)C(c2ccc(C)o2)C2=C(CC(c3cccs3)CC2=O)N1 (centres undefined)	-1.9%	0.45	i
CCNC(=O)NC(=O)C(C)Oc1ccc(C(=O)OC)cc1 (centres undefined)	-0.4%	1.1	i
C/C=C/c1ccc(OCCCn2cncn2)c(OC)c1	4.7%	-0.1	i
CCOC(=O)CN(C(=O)CSc1nnc(-c2ccc(OC)c(OC)c2)o1)c1ccc(F)cc1	-5.7%	-0.01	i
COc1ccc(CN(C(=O)c2ccco2)c2ccc(C)cc2)cc1OC	-2.3%	0.61	i
CCN(CC)S(=O)(=O)c1ccc2c(c1)c(=O)c(C(=O)N1CCOCC1)cn2C	-2.8%	-0.54	i
Cc1cc(C)cc(N(CC(=O)N2CCOCC2)S(=O)(=O)c2ccccc2)c1	2.4%	x	i
